# Screening results deposited in PubChem by National Center for Advancing Translational Sciences (NCATS).
# 2A firefly – FMDV 2A StopGo reporter, firefly signal | 120,000 compounds, 0.23% hits | AID 1745856 | HEK cells with a luciferase reporter of 2A StopGo recoding | Potency, µM (series often up to 57.5 µM), inactives show at the top dose signal change, negative = less light; active = well fitted falling curve with a large enough effect; inconclusive = small, poorly fitted or top-dose-only effect; inactive = no such curve, though single readings can be large or run the other way; also: nearly all actives have a fitted effect of over 60% in size; overnight with compound
# 2A Renilla – FMDV 2A StopGo reporter, Renilla signal; HEK cells with a luciferase reporter of 2A StopGo recoding; Potency, µM (doses to about 57.5 µM), for the others: at the highest dose signal change, negative = less light; 120,000 compounds, 0.32% hits; AID 1745857; active means well fitted falling curve with a large enough effect; inconclusive means small, poorly fitted or top-dose-only effect; inactive means no such curve, though single readings can be large or run the other way; also: nearly all actives have a fitted effect of over 55% in size; overnight with compound
# Active calls of the source: *; ? = inconclusive; & = joins results of further samples; [ ] = remark or other dose. % is scaled to controls: 0 for no effect and ±100 for the full control effect; potency is read from the fitted curve at half-maximal effect. These rows are one share of the data; count on the stated rates, not on these rows.
# A first look, 6 compounds:
Molecule	2A firefly	2A Renilla
CC(C)OCCCNc1nc2c(c(=O)n(C)c(=O)n2C)n1Cc1ccccc1Cl	-6%	-8%
Cc1ccc(OCCN2CCN(c3ncnc4scc(-c5ccccc5)c34)CC2)cc1	8%	4%
O=C(CCc1ncc(-c2ccccc2)o1)N1CCc2ccccc21	73%[activator]	5%
O=C(Nc1ccc(Br)cc1)C1CCCN1S(=O)(=O)c1ccc(F)cc1 (stereo not given)	0%	27%
CCCC(O)c1nc2ccccc2n1Cc1ccccc1OC (stereo not given)	-6%	68%[activator]
COc1ccc([N+](=O)[O-])cc1	15%	5%

# All compounds of this part, from the start:
Molecule	2A firefly	2A Renilla
CC(C)OCCCNc1nc2c(c(=O)n(C)c(=O)n2C)n1Cc1ccccc1Cl	-6%	-8%
Cc1ccc(OCCN2CCN(c3ncnc4scc(-c5ccccc5)c34)CC2)cc1	8%	4%
O=C(CCc1ncc(-c2ccccc2)o1)N1CCc2ccccc21	73%[activator]	5%
O=C(Nc1ccc(Br)cc1)C1CCCN1S(=O)(=O)c1ccc(F)cc1 (stereo not given)	0%	27%
CCCC(O)c1nc2ccccc2n1Cc1ccccc1OC (stereo not given)	-6%	68%[activator]
COc1ccc([N+](=O)[O-])cc1	15%	5%
Cc1ccccc1CNC(=O)c1cc2cccc3c2n1CC(C)S3 (stereo not given)	-7%	30%[activator]
O=C(Nc1ccccc1)C1=C(N2CCN(c3ccc(F)cc3)CC2)c2ccccc2S1(=O)=O	9%	-3%
Cc1ccc(NC(=O)CSc2nnc3scc(-c4ccc(Cl)cc4)n23)cc1	7%	-1%
O=C(NCC(F)(F)F)c1coc2ccccc2c1=O	-5%	-18%[1.06 µM]
CSc1ccc(CCNC(=O)c2ccc(-c3nc(COc4ccc(C)cc4)c(C)o3)cc2)cc1	-12%	-6%
O=C(NCC(c1ccc2c(c1)OCO2)N1CCN(c2ccccc2)CC1)c1ccccc1 (stereo not given)	0%	-6%
CC(NCc1cccc(C#N)c1)c1ccccc1Br (stereo not given)	-6%	1%
N#Cc1ccc(CNc2ccc(F)cc2Cl)cc1	151%[activator]	27%
Cc1cc(NC(=O)COc2cccc(Cl)c2)no1	34%[activator]	-10%
Cc1cc(C(=O)NC2CCCC2)c2ccccc2n1	2%	3%
CSc1cccc(NC(=O)CCn2ccnc2)c1	-4%	-4%
Cc1cc(C)c(NC(=O)Cn2cc(S(=O)(=O)Cc3ccccc3F)c3ccccc32)c(C)c1	2%	10%
CCOc1ccc(-c2nc(CSCC(=O)NCCc3ccccc3)c(C)o2)cc1	-4%	6%
CCOc1ccc(NC(=O)Cc2cccc3ccccc23)c2cccnc12	2%	-7%
O=C(NCCc1nc2ccccc2[nH]1)c1ccc(N2CCCN(Cc3cccc(F)c3)C2=O)cc1	?	?
Cc1ccc(NC(=O)NCCOCCn2c(=O)oc3ccccc32)c(C)c1	-13%	-13%
CCN(CC)C(=O)CSc1n[nH]c(=O)c2cc(-c3ccc(OC)c(OC)c3)nn12	48%[activator]	45%[activator]
Cc1cc(C)c2c(-n3cccc3)c(C(=O)NCCCN3CCCCC3C)sc2n1 (stereo not given)	-12%	-2%
Cc1ccc(C(=O)Cn2c(Br)nc3c2c(=O)n(C)c(=O)n3C)cc1	21%	-7%
O=C(NCC(c1ccccc1)c1c[nH]c2ccccc12)c1ccc[n+]([O-])c1 (stereo not given)	16%	12%
CCC1NC(=O)c2cc(S(N)(=O)=O)c(Cl)cc2N1 (stereo not given)	-21%	-17%
CCCN1Cc2cccc(C(=O)Nc3ccc(F)c(Cl)c3)c2C1=O	-8%	-6%
COc1ccc(NC(=O)CN2CCN(CC(=O)Nc3ccccc3F)CC2)c(OC)c1	-9%	4%
Cc1cc2nc(CSCC(=O)Nc3cccc(C)c3C)cc(=O)n2o1	4%	1%
COc1cc(C2c3c(-c4cc(C)ccc4O)n[nH]c3C(=O)N2Cc2ccco2)cc(OC)c1OC (stereo not given)	-8%	-6%
CCc1cccc(C)c1NC(=O)CC12CC3CC(CC(C3)C1)C2	2%	-6%
CC(C)(C)N1CC(C(=O)Nc2ccc(S(N)(=O)=O)cc2)CC1=O (stereo not given)	-8%	-11%
Cc1c(-c2nsc(NC(=O)c3ccc(Cl)cc3)n2)nnn1-c1ccc(C(C)C)cc1	4%	6%
Cc1ccc(NC(=O)C2CCCN(S(=O)(=O)c3cccc4nsnc34)C2)c(C)c1 (stereo not given)	-26%	-5%
Cc1[nH]c2ccc(Cl)cc2c1C(=O)CCl	-2%	-3%
CC(C)NC(=O)c1cc(Cl)ccc1OCc1ccccc1	17%	11%
COc1ccc(C)cc1NC(=O)c1oc2ccc(S(=O)(=O)N3CCC4(CC3)OCCO4)cc2c1C	-14%	-8%
CC(=O)c1c(C)oc2cc(C)c(NS(=O)(=O)c3ccc(C(C)(C)C)cc3)cc12	?	?
CC(C)c1ccc(NC(=O)COC(=O)CC2CCCC2)cc1	47%[activator]	8%
Fc1ccc(-c2csc(-c3ccncc3)n2)cc1	0%	-15%
Cc1ccc(NC(=O)CC(C)S(=O)(=O)c2ccc3c(c2)NC(=O)CO3)cc1Cl (stereo not given)	-7%	-8%
CCc1ccc2c(C)nc(Nc3nc(C)c(CCC(C)C)c(=O)[nH]3)nc2c1	0%	-2%
COc1ccc(Nc2c(-c3cccc(O)c3)nc3cnccn23)cc1	2%	3%
O=C(c1ccc(Cl)cc1)c1ccccc1C(=O)N1CCN(C(=O)C2CC2)CC1	-3%	-2%
O=C(CN1CCCc2cc(F)cc(F)c21)Nc1cccc2nsnc12	0%	0%
C/C(CC1(O)C(=O)Nc2ccccc21)=N/O (stereo not given)	-5%	5%
Cc1ccc(C)c(NC(=O)C(C)NS(=O)(=O)c2ccc3c(c2)CCN3C(=O)N2CCCC2)c1 (stereo not given)	-11%	0%
COc1cc(C2c3c(-c4c(C)cc(C)cc4O)n[nH]c3C(=O)N2CCCOC(C)C)cc(OC)c1OC (stereo not given)	0%	25%
CCc1nc(N2CCN(C(=O)CN3CCOCC3)CC2)c(C#N)c2c1COC(C)(C)C2	-3%	-3%
Cc1c(-c2ccccc2)oc2c(C(=O)NCCN(C)C)cccc2c1=O	-7%	-7%
CN(Cc1cccc(F)c1)C(=O)COc1ccc2c(C(F)(F)F)cc(=O)oc2c1	162%[activator]	42%[activator]
COC(=O)c1sc(NC(=O)CN2c3ccccc3CC2C)c(C(=O)OC)c1C (stereo not given)	11%	17%
O=C(NCC1CCCO1)c1ccccc1-c1nc(-c2ccc(Cl)cc2)no1 (stereo not given)	25%	13%
CCOC(=O)c1noc2nc(C)n(Cc3cccc([N+](=O)[O-])c3)c(=O)c12	-16%	-4%
CN(Cc1cccs1)C(=O)/C=C/c1ccc(C#N)cc1	21%	-20%
CCOc1ccccc1CNC(=O)C1CCN(c2nnc(N3CCCC3=O)s2)CC1	-7%	-7%
CCOc1cc(C2Sc3ccccc3NC3=C2C(=O)c2ccccc23)ccc1O (stereo not given)	0%&7%	210%[activator]
Cc1cc(C(=O)NCCc2ccc(Cl)cc2)c2c(C)nn(-c3ccccc3)c2n1	-10%	-13%
Clc1ccc(CNc2nc3ccccc3c3nc(-c4cccnc4)nn23)cc1	-2%	-12%

# The listing continues.
Molecule	2A firefly	2A Renilla
CCN1CCN(c2ccc(NC(=O)c3cc(Cl)ccc3OC)cc2)CC1	32%[activator]	-16%
C=CCNc1nnc(SCc2coc(-c3ccccc3)n2)s1	127%[activator]	-4%
Cn1c(=O)c2c(nc(Cl)n2CCC#N)n(C)c1=O	-3%	-11%
O=C(CSc1nnnn1C1CCCCC1)Nc1cccc(CN2CCSCC2)c1	-2%	-3%
CC(=O)NCc1ccc(C(=O)CSc2nnc(C3CC3)n2C2CC2)cc1	-1%	2%
COC(=O)c1ccccc1NC(=O)CN1N=C(c2ccccc2)c2cc(Cl)ccc2S1(=O)=O	2%	2%
COc1ccc(NS(=O)(=O)c2ccc3c(c2)C(C(C)C)C(=O)N3)cc1 (stereo not given)	-17%	49%[activator]
CC(=O)N1CCC(C(=O)Nc2cccc(S(=O)(=O)N3CCCC3)c2)CC1	-9%	-5%
CCCOc1ccc(CNC(=O)C2CCN(c3nc4ccccc4nc3C(F)(F)F)CC2)cc1	-17%	-12%
COCCCNC(=O)Cn1nc(C)c2ccccc2c1=O	-15%	-16%
CCCN(CCC)C(=O)c1c[nH]c2ccc(S(=O)(=O)Nc3cc(C)cc(C)c3)cc2c1=O	8%	68%[activator]
CNc1snc(C)c1C(=O)NCCc1cc(OC)ccc1OC	-2%	-4%
CCC1CCc2sc(C(=O)NC3CC3)cc2C1 (stereo not given)	178%[activator]	11%
O=C(NCCc1c[nH]c2ccc(Cl)cc12)c1ccccc1	23%	2%
COc1ccc(NC(=O)c2cc(=O)c3ccc(C)cc3o2)c(OC)c1	-1%	-10%
O=C1C(=O)c2ccccc2C(O)=C1C1CCC(c2ccc(Cl)cc2)CC1 (stereo not given)	-14%[11.5 µM]	-1%
COc1ccc(C(=O)OCc2ccc(Br)cc2)c(OC)c1	165%[activator]	21%
O=S(=O)(Nc1nc2ccccc2nc1NCC1CCCO1)c1ccccc1 (stereo not given)	12%	102%[activator]
CCOc1ccccc1CNCCc1c[nH]c2ccccc12	-6%	7%
Cc1c(Cl)cccc1NC(=O)C(C)n1nnc2sc3c(c2c1=O)CCCC3 (stereo not given)	-13%	-9%
CC(=O)C1CCOC1=O (stereo not given)	-17%	-10%
CC(C)Nc1sc(C(=O)c2ccccc2)c(N)c1C#N	8%	1%
Cc1cc(C)n(-c2nc3ccccc3nc2N2CCN(S(=O)(=O)c3ccc(C)c(C)c3)CC2)n1	-3%	-5%
Cc1ccc(C(=O)Nc2nnc(S(=O)(=O)N(C)Cc3ccc(Cl)cc3)s2)cc1	17%	-3%
Fc1ccc(OCc2nn3c(CSc4ccccc4)nnc3s2)cc1	176%[activator]	15%
Cc1ccc(C(=O)OCCOc2ccc(C#N)cc2)cc1F	10%	-12%
Cc1nc2nc(SCC(=O)NCCc3ccc(Cl)cc3)nn2c(C)c1Cc1ccccc1Cl	-4%	-16%
O=C(NNC(=O)C1CCCCC1)c1ccccc1F	0%	7%
Cc1ccc(OCC(=O)Nc2ccccc2C(=O)OCc2cc(=O)n3ccsc3n2)cc1	51%[activator]	-9%
O=C(CCC1CCCC1)NCc1ccco1	38%	15%
O=C(Nc1ccc(OC(F)(F)F)cc1)C1CCN(S(=O)(=O)c2ccc3[nH]c(=O)ccc3c2)CC1	-1%	-4%
COC(=O)CNC(c1ccccc1)c1cc(Br)ccc1NC(=O)c1ccc(Cl)cc1 (stereo not given)	-19%	-11%
Cc1ccc(S(=O)(=O)NCCSc2nnnn2-c2ccc(Cl)c(C(=O)O)c2)cc1	1%	-5%
O=C(COC(=O)c1ccc2ccccc2n1)Nc1cc(F)ccc1F	-2%	-18%
COc1cccc(/C=C2\Oc3cc(OS(C)(=O)=O)ccc3C2=O)c1OC	10%	1%
CCN(CC)c1nc2ccccc2nc1C(=O)Nc1ccc(C(=O)OC)cc1	37%[activator]	36%[activator]
O=C(Nc1ccc(OCc2cc(=O)n3ccsc3n2)cc1)C1CCCCC1	-2%	-5%
CCOc1ccc(C(C)=O)cc1COc1ccc2c(CC)cc(=O)oc2c1	-2%	-5%
COCCCNC(=O)c1ccc(Cn2c(=O)c3ccccc3n(Cc3c(C)cc(C)cc3C)c2=O)cc1	-5%	-7%
CCOc1ccccc1NC(=O)c1cc2c(=O)n3ccccc3nc2n1C	-6%	-10%
CC(C)(C)c1ccc(C(=O)Nc2nc3nc(-c4ccccc4)cc(=O)n3[nH]2)cc1	-23%	-13%
Cc1cccc(Nc2nc3ccccc3nc2NS(=O)(=O)c2cccc3nsnc23)c1	4%	13%
Cc1ccc(NC(=O)CCc2ncc(-c3ccccc3F)o2)cc1C	87%[activator]	-1%
CCCCC(=O)Nc1nonc1-c1ccc(F)cc1	33%[activator]	88%[activator]
CC(C)(C)c1ccc(OCC(=O)Nc2ccc(S(=O)(=O)Nc3ncccn3)cc2)cc1	-24%	-9%
Cc1ccc(Cn2c(=O)n(Cc3ccc(Cl)cc3)c(=O)c3cccnc32)cc1	-7%	-12%
Cn1nccc1C(=O)Nc1sc2c(c1C#N)CCCC2	102%[activator]	-5%
CCc1ccc(NC(=O)CCS(=O)(=O)c2ccc3c(c2)CCN3C(C)=O)cc1	7%	9%
O=C(Cc1cccs1)NC1CC(=O)N(c2ccc(Cl)cc2)C1 (stereo not given)	-8%	0%
CCCC(=O)Nc1cccc(-c2cn3c(C)csc3n2)c1	2%	-11%
Cc1ccccc1NS(=O)(=O)c1ccc(C(=O)NCc2cccnc2)cc1	?	?
COc1cccc(NC(=O)CSC2=Nc3ccccc3C3=NC(CCC(=O)NCCc4ccccc4)C(=O)N23)c1 (stereo not given)	-14%	-14%
CC(C)N(C)S(=O)(=O)c1ccc(NC(=O)c2cc3ccccc3oc2=O)cc1	32%[activator]	5%
CCC(C)NC(=O)c1cc(-c2ccc(C)s2)nc2ccccc12 (stereo not given)	14%	19%
